# High-throughput results from PubChem.
# RanGTP-Imp inh – inhibitors of RanGTP-importin-beta interaction, primary screen, biochemical, FRET, CFP-Ran, YFP-importin-beta, homogeneous; AID 2216; 300,000 tested, 1.1% active; inhibition, % (no concentration beside the values); cell-free CFP-Ran/YFP-importin-beta FRET ratio;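 active means most replicates above 15%; inconclusive means exactly half above 15%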;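 further: 0% = DMSO wells and 100% = Ran loaded with GDP instead of GTP; wells of about 40 µL received 100 nL stock; the first replicate is given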
# LANA-H2B inh – blocks KSHV LANA binding to histone H2A/H2B; inhibition, % (concentration not given with the values); Q9QR71; 320,000 tested, 0.6% active; cell-free LANA-H2A/H2B peptide, fluorescence polarization; in the data active means inhibition mostly above about 10%, no sharp cut-off; inactive means mostly below about 6.7%;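 further: stock transfer was 7.5 nL into about 10 µL; 0% = median of vehicle wells and 100% = median of positive control wells; one replicate is shown; the record names a cut of 25% in any replicate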
# UCH37 DUB inh – blocks the human deubiquitinase UCH37; Q9Y5K5; AID 588478; 330,000 tested, 0.33% active; inhibition, % (no concentration beside the values); purified proteasome/UCH37, Ub-AMC cleavage fluorescence;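 active means mean of two replicates above 20%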;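 further: 0% = compound-free wells with enzyme and 100% = wells lacking proteasome; stock transfer was 100 nL into about 20 µL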
# Target sequence (Q9Y5K5 whole entry, looked up): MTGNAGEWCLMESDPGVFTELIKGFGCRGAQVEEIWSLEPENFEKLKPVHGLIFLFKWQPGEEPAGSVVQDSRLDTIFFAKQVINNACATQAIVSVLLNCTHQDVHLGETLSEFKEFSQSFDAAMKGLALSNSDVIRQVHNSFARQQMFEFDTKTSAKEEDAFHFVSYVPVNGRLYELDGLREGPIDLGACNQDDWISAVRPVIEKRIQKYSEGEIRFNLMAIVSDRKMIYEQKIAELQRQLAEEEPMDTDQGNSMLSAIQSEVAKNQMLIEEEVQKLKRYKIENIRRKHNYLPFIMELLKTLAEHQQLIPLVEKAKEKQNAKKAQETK
#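 Material: human UCH37 enzyme supplied as purified proteasome complex / Amount: 0.15 nM proteasome as dispensed / Buffer or medium: pH 7.4 Tris-HCl (50 mM) with ovalbumin, ATP-MgCl2, DTT / Times: preincubation 30 min, reaction 25 min, room temperature / Technique: AMC fluorescence from Ub-AMC cleavage, excitation 355 nm, emission 460 nm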
# T cruzi repl – T. cruzi replication inhibition; T. cruzi beta-gal in NIH3T3, luminescence, 90 h; inhibition, % (no concentration beside the values); 300,000 tested, 1.4% active; AID 1885;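 active means mean inhibition across valid replicates above about 55%, limit read from the data; inconclusive means mean below that limit but half or more replicates reach it; inactive means mean below it, under half of replicates reach it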;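 further: signal also drops with host cell toxicity which is not excluded here; 0% = plate median of DMSO wells and 100% = zero luminescence signal; higher percent means less beta-gal luminescence so fewer parasites; stock transfer was 50 nL into about 50 µL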
# Beta apoptosis – blocks beta cell apoptosis; protection from apoptosis, % (concentration not given with the values); AID 435005; 300,000 tested, 0.8% active; INS-1E cytokine-induced death, ATP luminescence, 48 h; percent of positive-control rescue, neutral wells zero;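 active means all replicates at 75% or more, or half of them and the mean; inconclusive means half reach 75% but not the mean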;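 further: 0% = cytokine-treated negative control wells and 100% = positive control rescue; higher means more ATP so stronger rescue from cytokine killing; wells of about 40 µL received 100 nL stock; the first replicate is given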
# A1 inh – inhibitors of the anti-apoptotic protein A1, read as caspase activation | MEF A1-2A-BIM cells, Caspase-Glo 3/7 luminescence, 3 h; percent of clofoctol response, vehicle zero | caspase activation, % (no concentration beside the values) | 330,000 tested, 0.066% active;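 active means over half of replicate activation scores above 10%, or exactly half above 10 with the replicate mean above 10; inconclusive means replicate mean below 10 yet half the replicates above 10; inactive means over half of replicates below 10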;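 further: wells of about 30 µL received 50 nL stock; many hits fall short of the cut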
# B2AR ag – agonists of human beta-2 adrenergic receptor inducing internalization; P07550; Am2.2-beta2AR cells, FAP receptor internalization, flow cytometry; reference of the scale not given here; response, % (no concentration beside the values); 340,000 tested, 0.43% active; AID 504454;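 active means response above a set limit, near 3 SD of response in nonfluorescent compounds, cut at about 42% in these data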;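 further: stock transfer was 100 nL into about 11 µL; a reference agonist was the positive control; negative values mostly stem from fluorescent compounds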
# Target sequence (P07550 whole entry, looked up): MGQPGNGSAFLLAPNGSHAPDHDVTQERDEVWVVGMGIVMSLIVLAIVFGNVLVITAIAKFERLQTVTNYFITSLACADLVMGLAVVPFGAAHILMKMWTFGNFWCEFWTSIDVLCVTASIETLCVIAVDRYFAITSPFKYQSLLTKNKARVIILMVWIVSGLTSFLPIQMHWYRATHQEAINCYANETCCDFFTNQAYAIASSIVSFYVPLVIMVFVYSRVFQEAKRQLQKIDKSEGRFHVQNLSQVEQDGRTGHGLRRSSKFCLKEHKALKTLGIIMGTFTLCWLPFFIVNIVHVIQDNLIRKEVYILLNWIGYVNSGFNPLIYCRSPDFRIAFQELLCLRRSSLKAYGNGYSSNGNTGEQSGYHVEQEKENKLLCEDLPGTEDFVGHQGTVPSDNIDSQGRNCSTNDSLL
# Calb FLC – affects C. albicans growth with fluconazole; 300,000 tested, 0.57% active; AID 1979; C. albicans CaCi-2 (fluconazole-resistant clinical isolate) + fluconazole, Alamar Blue growth, 48 h; growth inhibition, % (concentration not given with the values);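 active means most replicates above 75%; inconclusive means exactly half above 75%; inactive means most below 75%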;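 further: all wells also contain fluconazole at 8 µg/ml as a sub-toxic cotreatment; 0% = median of DMSO wells and 100% = median of geldanamycin control wells; wells of about 8 µL received 7.5 nL stock; the first replicate is given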
# Active calls of the source: *; i = inactive; u = inconclusive; x = not tested or not shown.
no.	structure	LANA-H2B inh	A1 inh	RanGTP-Imp inh	UCH37 DUB inh	B2AR ag	Calb FLC	Beta apoptosis	T cruzi repl
1	COc1cccc(CNC(=O)CNC(=O)N2CC(=O)Nc3ccccc32)c1	2.0	-0.3	2.0	3.1	-2	-4	-5	-10
2	CSc1nc2ccc(NC(=O)COc3ccccc3F)cc2s1	-1.9	-7.9	x	0.8	-4	x	5	x
3	COc1cccc(N2CCN(c3ccc4nnc(CCC(=O)Nc5ccccn5)n4n3)CC2)c1	-0.3	-0.5	1.0	3.9	8	-4	-4	1
4	CCOC(=O)[C@@H]1[C@H]2COc3ccc(Br)cc3[C@H]2N2C(=O)N(c3ccc(OC)cc3)C(=O)[C@]12C	2.5	1.6	x	-22	5	x	4	x
5	Cc1ccc(C)c(S(=O)(=O)N2CCCOC2CNC(=O)C(=O)NCCC2=CCCCC2)c1 (stereo not given)	-2.0	1.4	-1.1	2.2	-2	2	1	13
6	O=C1CC(c2ccccc2)CC(O)=C1C=NCCN1CCN(Cc2ccccc2)CC1 (stereo not given)	0.4	1.3	u	5.3	-7	1	-6	15
7	CCOC(=O)c1cc(CC)sc1NC(=O)CC1Sc2ccc(C(F)(F)F)cc2NC1=O (stereo not given)	0.1	-0.5	1.7	1.2	-4	12	-5	-4
8	CC(C(c1cccs1)c1c(N)n(C)c(=O)n(C)c1=O)[N+](=O)[O-] (stereo not given)	4.3	0.3	2.8	1.4	0	-5	-12	-5
9	FC(F)(F)c1cccc(NC(=S)N2CCN(c3ccccn3)CC2)c1	-7.7	-1.0	-2.2	4.2	-5	-3	-4	-22
10	Cc1cc(C)cc(NC(=O)c2nnn(Cc3cc(C)ccc3C)c2N)c1	-2.3	0.3	-2.2	3.2	12	-2	-2	9
11	Cc1nc2ccccc2c(C)c1CC(=O)N(C)CC(=O)Nc1cccc(F)c1	1.3	0.0	6.1	-2.4	10	7	x	-3
12	Cc1cc(NC(=O)CS(=O)(=O)Cc2ccccc2)no1	0.6	0.9	3.2	1.1	0	-5	-2	-6
13	COc1ccc(CCNC(=O)CCCCCNc2nc(=S)[nH]c3ccccc23)cc1OC	-0.9	-0.4	1.5	3.1	-12	-28	-3	6
14	Cc1ccnc(SC2CC(=O)N(c3ccc(Cl)cc3)C2=O)n1 (stereo not given)	2.2	-0.1	u	0.9	-4	8	-2	-12
15	O=C(O)c1ccc(N/N=C/c2cccc(C(F)(F)F)c2)cc1	0.6	-4.8	-0.7	x	-15	-4	-9	3
16	Cc1cccc(C)c1-n1c(SCC(=O)NCc2ccco2)nc2ccccc2c1=O	x	0.0	3.6	1.6	-2	-20	-2	3
17	CC(C)(C)NC(=O)NC(=O)CN1CCN(Cc2ccccc2)CC1	-2.5	0.4	0.3	4.7	1	-26	0	2
18	Cc1ccccc1CSc1ccc(S(=O)(=O)N2CCCC2)cn1	2.8	0.1	x	4.2	-6	x	-12	x
19	CC(C)CC(=O)Nc1nnc(CCc2ccccc2)s1	-2.2	-0.3	u	6.4	-2	-7	-8	-5
20	COc1ccc(OCC(=O)N2CCN(S(=O)(=O)c3ccc(Cl)cc3)CC2)cc1	-1.2	-0.2	6.1	3.9	-4	-4	2	1
21	CCN(CC)CCN1C(=O)C(=O)/C(=C(/O)c2ccc(OC(C)C)cc2)C1c1ccncc1 (stereo not given)	-2.2	0.3	1.1	8.8	6	-1	1	-6
22	COc1ccc(CCC(=O)OCC(=O)N(C)c2c(N)n(Cc3ccccc3)c(=O)[nH]c2=O)cc1	4.0	0.6	-2.5	5.6	4	-13	-6	-4
23	COc1ccc(S(=O)(=O)NCc2cccnc2)cc1NC(=O)c1ccc(Cl)cc1	-0.5	1.2	2.4	5.3	-6	1	x	-4
24	C/C(=N/NS(=O)(=O)c1ccc(Cl)cc1)c1ccncc1	2.5	0.1	3.7	x	0	3	-10	-6
25	CC(=O)c1cccc(NC(=O)C2C3C=CC(C3=C(c3ccccc3)c3ccccc3)C2C(=O)O)c1 (stereo not given)	-4.3	-1.0	x	3.0	-7	16	0	14
26	O=c1ccc2cc(S(=O)(=O)N3CCN(c4ccccc4)CC3)ccc2[nH]1	7.3	0.1	-3.2	5.9	0	5	5	0
27	CCOc1ccc(-n2c(=O)c3sccc3n(CC(=O)NCc3ccco3)c2=O)cc1	-5.1	-2.8	1.3	4.5	-8	7	-7	0
28	CC1(C)CCc2cc(CN3CCN(c4ccccn4)CC3)ccc2O1	-8.0	1.1	3.8	-1.3	-1	-20	-2	-6
29	CC1(C)CC(=O)c2sc(NS(=O)(=O)Cc3ccccc3)nc2C1	0.4	-1.3	1.5	12	-6	4	x	-16
30	CC(=O)Nc1ccc(C(=O)OCC(=O)NCc2ccc3c(c2)OCO3)cc1	4.4	0.4	x	4.5	-12	x	-6	x
31	O=C(CSc1ccccc1)Nc1ccc(S(=O)(=O)Nc2ncccn2)cc1	1.4	0.8	-1.7	2.5	4	-12	-5	-3
32	O=C1CCCN1CCCNc1ccc2nnc(CCC(=O)N3CCN(c4ccccc4)CC3)n2n1	-4.1	0.2	-1.8	-0.3	-5	-19	-3	-1
33	O=C(NCc1cccnc1)c1cccc(NC(=O)c2ccco2)c1	0.6	0.9	-1.2	4.7	-2	-2	0	-5
34	COc1ccc(NC(=O)CN(C)C(=O)C2=NN(c3ccccc3)C(=O)CC2)cc1	-3.9	0.6	x	2.0	5	x	-7	x
35	COc1cc(C(c2c(C)[nH][nH]c2=O)c2c(C)[nH][nH]c2=O)ccc1OS(=O)(=O)c1ccc(C)cc1	1.3	0.2	-0.1	2.8	0	2	-6	0
36	Cn1c(=O)c(C(=O)CN2CCCCC2)c(N)n(Cc2ccccc2)c1=O	-1.6	0.4	-0.9	-0.9	-5	-5	-2	-9
37	Cc1cn(C2OC(COC(=O)c3ccccc3)C(O)C2O)c(=O)[nH]c1=O (stereo not given)	3.2	1.3	6.7	1.6	-4	8	-3	-1
38	COc1cc(/C=N/NC(=O)CNc2n[nH]c(=O)[nH]c2=O)ccc1OCc1ccccc1	4.1	0.1	4.5	x	10	2	1	-11
39	CCOC(=O)N=Nc1c(O)n(CC)c2ccccc12	2.3	0.0	-0.4	3.1	-35	1	-3	6
40	CSCCC(NC(=O)COc1ccccc1)C(=O)N1CCN(c2ccccc2F)CC1 (stereo not given)	-7.4	0.2	5.1	1.8	-9	2	2	13
41	COC(=O)CC(=O)CSc1nc(C)cc(C)c1C#N	0.0	-1.2	4.2	-31	-2	2	0	3
42	CCOc1cc(N2CCOCC2)c(OCC)cc1NC(=O)C(C)C	-2.0	0.3	-0.1	0.6	8	2	-9	3
43	O=C(CCn1cnc2ccccc21)N/N=C/c1ccccc1O	-3.5	-0.4	6.4	x	0	u	-8	-25
44	CN(C)C(C)(C)/C=C/C(O)(c1ccccc1)c1ccccc1	0.4	0.9	-3.6	x	-3	0	x	6
45	NC(=O)C1CCN(C(=O)c2ccc3c(=O)n(Cc4ccco4)c(SCC(=O)c4ccc(F)cc4)nc3c2)CC1	-2.9	0.7	3.6	x	x	6	-3	4
46	OCCNCCNCc1ccc(-c2ccccc2)cc1	-0.5	0.2	-4.7	-0.4	x	-4	5	29
47	Cc1ccccc1Cn1c(CN2CCc3ccccc3C2)nc2c1c(=O)n(C)c(=O)n2C	-2.9	-0.5	0.9	4.1	9	-4	x	54
48	CCOC(=O)CNC(=S)N(Cc1ccccc1)Cc1cccs1	-0.1	0.0	-1.3	0.5	6	-2	-2	-2
49	O=C(NC1CC1)C1C2C3C4CC5C3C5C4C12 (stereo not given)	-10	1.7	2.4	3.8	1	5	2	-1
50	NC(=O)COc1c(-c2ccc(Br)o2)oc2ccccc2c1=O	9.9	-0.2	0.6	i	3	3	7	15
51	O=C(NCCc1c[nH]c2ccccc12)c1cccc(S(=O)(=O)Nc2ccccc2Cl)c1	-3.0	0.4	1.2	2.2	-5	u	7	19
52	CC(C)CC(NC(=O)c1ccccc1)C(=O)N/N=C/c1ccco1 (stereo not given)	-0.6	1.2	u	x	-4	2	x	-12
53	Cc1ccc(Cl)c2sc(NC(=O)C3CC3)nc12	-0.7	-0.1	3.6	1.3	3	5	4	-24
54	COc1ccc2[nH]c3c(=O)n(CCCN4CCOCC4)cnc3c2c1	4.0	-0.2	2.1	-392	-2	2	-5	17
55	O=C(O)CSc1ncn[nH]1	-0.7	0.5	1.4	1.6	2	-2	-11	-7
56	Cc1nc(N)sc1-c1csc(Nc2ccc(S(N)(=O)=O)cc2)n1	4.8	0.2	5.3	5.7	9	-3	-4	-8
57	C=CCOC(=O)C1=C[C@H](c2ccc(Br)cc2)C[C@H](OCCCCO)O1	-2.0	-0.1	-0.1	3.6	2	5	-30	-13
58	Cc1ccc(S(=O)(=O)N(Cc2ccccc2)c2ccccc2C(=O)NCc2cccnc2)cc1	-3.9	-0.5	0.5	5.8	-13	6	-1	26
59	O=C(CN(C(=O)CNC(=O)c1cccs1)c1ccc(F)cc1)NC1CCCCC1	0.7	-0.1	5.1	-1.5	7	9	1	13
60	COc1cc(C(=S)N2CCOCC2)cc(OC)c1OC(=O)c1ccc(F)cc1	11	0.4	4.9	4.0	4	5	-1	8

# Next part
no.	structure	LANA-H2B inh	A1 inh	RanGTP-Imp inh	UCH37 DUB inh	B2AR ag	Calb FLC	Beta apoptosis	T cruzi repl
61	COCCCNC(=O)COc1cc2c(c3oc(=O)c(C)c(C)c13)CCC(C)(C)O2	1.9	0.2	-2.2	i	-11	5	4	8
62	COc1ccc(N2CCN(C(=O)C3CCCN(S(=O)(=O)c4cccc5cccnc45)C3)CC2)cc1 (stereo not given)	2.2	1.4	0.1	4.2	-8	-12	9	2
63	O=C(C1CCC(CNS(=O)(=O)c2ccc(F)cc2)CC1)N1CCOCC1 (stereo not given)	-0.1	-1.3	3.4	-2.2	6	-5	-5	-5
64	O=C(NC(=S)NNC(=O)c1ccco1)c1ccc(Br)cc1	2.0	-0.6	5.4	-6.8	-5	54	4	-49
65	O=C(Cn1c(=O)oc2cc(S(=O)(=O)N3CCCCC3)ccc21)N1CCc2ccccc21	4.6	0.1	4.5	5.0	9	3	6	-23
66	CCCC1CCc2c(sc(NC(=O)OCC)c2C#N)C1 (stereo not given)	-1.9	-0.1	0.3	1.6	-10	15	8	19
67	COc1ccc(NC(=O)N(C)C[C@H]2Oc3ccc(NS(=O)(=O)c4cccs4)cc3C(=O)N([C@@H](C)CO)C[C@@H]2C)cc1	0.0	2.1	x	0.0	-7	x	-3	x
68	Cc1ccc(Cn2nnc3c(=O)[nH]c(C4CCN(C(=O)c5cccs5)CC4)nc32)cc1	2.0	0.0	3.9	2.0	-3	0	-3	-1
69	CC(C)(C)C(=O)Nc1ccc(C(=O)N/N=C/C2CC3C=CC2C3)cc1 (stereo not given)	-5.5	0.8	-1.4	x	11	-16	-4	-10
70	COc1ccccc1-n1cnc2cc(NCc3ccccc3O)ccc21	-5.0	-0.2	42*	3.9	4	-8	-3	37
71	COc1cc(/C=C/C(=O)O)cc(S(=O)(=O)NCC2CCCO2)c1OC (stereo not given)	-0.1	0.4	-4.3	-4.3	7	-8	-3	-17
